Sfp inh: blocks B. subtilis Sfp PPTase activity | 310,000 tested, 3.5% active | Potency, µM, without a hit: max response, negative = inhibition, usual class: inhibitors | Biochemical Sfp PPTase activity, qHTS; active = well fitted inhibition curve with a large enough effect; inconclusive = small, poorly fitted or top-dose-only effect, or another doubt; inactive = no such curve, though single readings can be large or run the other way;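 also: the enzyme is Sfp with the accession as filed and its product quenches rhodamine fluorescence; potency is read from the fitted curve at half-maximal effect; 0% = enzyme reaction without inhibitor and -100% = no enzyme wells; top concentration of the series not given in the record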
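Fluorescence-quenching assay with 15 nM Sfp, 5 uM rhodamine-CoA and 12.5 uM BHQ-2-labelled ybbR peptide in pH 7.6 Hepes/MgCl2 buffer. Enzyme was pre-incubated with compound for 15 min at room temperature. Rate was taken from the 30-min fluorescence change (525/598 nm).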
ClpP mod: qHTS Assay for Activators of ClpP; ATP-dependent Clp protease proteolytic subunit (Bacillus subtilis (strain 168)), P80244; Potency, µM (titrated, usually from 57.5 µM), for the others: at the highest dose activity change, negative = active; 340,000 tested, 1.9% active; purified B. subtilis ClpP, FRET peptide cleavage, 20 min; active = well fitted falling curve with a large enough effect; inconclusive = small, poorly fitted or top-dose-only effect; inactive = no such curve, though single readings can be large or run the other way; also: potency is read from the fitted curve at half-maximal effect; the source files actives as falling curves though it sought activators and does not explain the sign; nearly all actives have a fitted effect of over 65% in size; many hits overshoot -100%
Target sequence (P80244 whole entry, looked up): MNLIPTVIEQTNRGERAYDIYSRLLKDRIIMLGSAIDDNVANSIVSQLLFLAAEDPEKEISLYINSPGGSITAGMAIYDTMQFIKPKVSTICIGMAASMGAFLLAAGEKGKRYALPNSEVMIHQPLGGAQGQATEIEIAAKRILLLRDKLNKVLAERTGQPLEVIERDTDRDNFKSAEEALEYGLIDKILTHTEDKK
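FRET quenching reversal measured ClpP activation: 10 microg/mL B. subtilis ClpP at pH 8 with the FRET-FV decapeptide, read at 430 nm after 320 nm excitation. The 20-min minus 0-min signal was scaled between DMSO/no-enzyme wells and ADEP (5.8 microM final).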
Menin MLL FP FL: inhibitors of human menin-MLL interaction, wild-type MLL peptide. AID 1766. Fluorescence polarization, fluorescein-MLL peptide displacement from menin. FP activity change, % at 61.4 µM. 290,000 tested, under 10 active; inconclusive = falling polarisation curve, or a change in total fluorescence; inactive = total fluorescence flat and polarisation flat or rising; no compound was filed as active; the % refers to the polarisation; negative = inhibition;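 also: % of control where 0% means no effect; inhibitors lower the polarisation; unlabelled MLL peptide was the positive control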
gsp antagonist: antagonizes gsp, the McCune-Albright syndrome mutation | 340,000 tested, 0.4% active | gsp-mutant cells, cAMP HTRF, 30 min; control for the full effect not named in the record | Potency, µM (highest dose often 76.9 µM), for the others: at the top dose activity change, negative = inhibition, hits mostly inhibitors; active = falling curve of any shape with a large fitted effect; inconclusive = falling curve, mostly with a smaller effect; inactive = flat or rising curve; cell line not stated here;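 also: intracellular cAMP measured with PDE inhibitor Ro 20-1724 present during compound exposure; potency is read from the fitted curve at half-maximal effect; % is scaled to controls: 0 for no effect and ±100 for the full control effect; nearly all actives have a fitted effect of over 65% in size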
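HTRF cAMP measurement after 30 min RT detection following 30 min, 37C compound treatment alongside […] (added as 300 uM solution) in G418-selected cells seeded at 2000/well and grown 16–24 h.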
gsp ag: gsp mutant agonism | gsp mutant cells, cAMP HTRF, 30 min; control for the full effect not named in the record | Potency, µM (doses to about 76.9 µM), inactives show top-dose activation (cAMP increase), hits mostly activators | 340,000 tested, 0.13% active; active = well fitted activation curve with a large enough effect; inconclusive = small, poorly fitted or top-dose-only effect, or another doubt; inactive = no such curve, though single readings can be large or run the other way; cell line not stated here;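 also: phosphodiesterase inhibitor Ro 20-1724 added with compounds to block cAMP breakdown; potency is read from the fitted curve at half-maximal effect; nearly all actives have a fitted effect of over 60% in size; about a fifth of the inactives were tested at one dose only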
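Cells stably selected in G418 were plated at 2000/well, grown 16-24 hr, then given compounds in DMSO with the PDE inhibitor […] (300 uM solution added) for 30 min at 37C; cAMP was read by HTRF.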
CtBP-E1A blk: blocks the CtBP interaction with E1A. AID 651724. AlphaScreen GST-E1A/His-CtBP binding, 1536-well; stronger effect = lower value; control for the full effect not named in the record. activity change, % (test concentration not listed). 340,000 tested, 0.49% active; in the data active means activity change below about -65%; inconclusive means about -30% to -65%; inactive means above about -30%; also: % is scaled to controls: 0 for no effect and ±100 for the full control effect; compound concentration not given in the record
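AlphaScreen with 125 nM GST-E1A and 125 nM His-CtBP (5X stocks) in Tris pH 8.0, 300 mM NaCl, BSA, Tween 20, TCEP. Compounds preincubated 2 h at 37 deg C, then glutathione donor/nickel acceptor beads added for 1 h at 37 deg C in dark.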
TRPV1 potentiator: potentiators of human vanilloid receptor 1 (TRPV1); 320,000 tested, 0.02% active; AID 540277; Q8NER1; potentiation, % at 8.33 µM; TRPV1-expressing cells, Fluo-8 calcium influx, capsaicin EC20 potentiation; host cell line not named in the record; control for the full effect not named in the record; active means potentiation above 80%; inconclusive means 30% to 80%; inactive means below 30%; also: 0% is about no effect
Target sequence (Q8NER1 whole entry, looked up): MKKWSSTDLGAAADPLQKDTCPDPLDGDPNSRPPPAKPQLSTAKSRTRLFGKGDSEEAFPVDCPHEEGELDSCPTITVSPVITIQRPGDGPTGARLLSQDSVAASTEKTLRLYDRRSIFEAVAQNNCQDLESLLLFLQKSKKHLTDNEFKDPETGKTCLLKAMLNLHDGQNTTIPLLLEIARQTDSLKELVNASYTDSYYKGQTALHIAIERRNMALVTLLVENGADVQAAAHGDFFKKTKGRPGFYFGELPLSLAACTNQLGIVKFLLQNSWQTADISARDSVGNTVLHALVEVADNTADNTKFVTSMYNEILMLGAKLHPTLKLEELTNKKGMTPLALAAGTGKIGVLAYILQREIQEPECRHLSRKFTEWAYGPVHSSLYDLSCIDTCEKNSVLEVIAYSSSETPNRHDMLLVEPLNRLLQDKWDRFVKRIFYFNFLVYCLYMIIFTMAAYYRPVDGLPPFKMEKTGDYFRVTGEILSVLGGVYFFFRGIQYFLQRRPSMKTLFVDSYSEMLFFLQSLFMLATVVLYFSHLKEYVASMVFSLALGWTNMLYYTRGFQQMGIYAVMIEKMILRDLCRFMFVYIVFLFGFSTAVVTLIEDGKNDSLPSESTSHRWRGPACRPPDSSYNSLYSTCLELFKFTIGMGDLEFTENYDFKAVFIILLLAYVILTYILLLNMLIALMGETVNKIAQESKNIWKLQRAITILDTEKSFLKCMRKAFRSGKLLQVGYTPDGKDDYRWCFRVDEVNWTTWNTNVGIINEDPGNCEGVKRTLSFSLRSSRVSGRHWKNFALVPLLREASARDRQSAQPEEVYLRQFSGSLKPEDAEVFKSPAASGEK
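Fluo-8 calcium influx in TRPV1-expressing cells, kinetic read (ex 480/em 520 nm). Compound added and read 3 min for agonist activity, followed by capsaicin at EC20 final and 2 min further read for enhancement.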
Active calls of the source: *; ? = inconclusive; · = not tested or not shown; [ ] = dose if it differs, or a comment.

Sequence of screens – gsp ag | Menin MLL FP FL | TRPV1 potentiator | ClpP mod | CtBP-E1A blk | gsp antagonist | Sfp inh
COc1ccc(N2CCN(S(=O)(=O)c3ccc(Cl)c(C(F)(F)F)c3)CC2)cc1
    -1.2% | -0.8 | 15.9 | 1.4% | 6.5 | 12.3% | 5.0%
CSc1nc(SC(C)C(=O)O)c2c3c(sc2n1)COC(C)(C)C3 (stereo not given)
    ? | 0.8 | 10.4 | 3.8% | -15.7 | -3.8% | 27.2%
Cc1cccc(Nc2nc(N)nc(CC(=O)CSc3ccc(Cl)cc3)n2)c1
    · | 4.3 | 4.5 | · | · | · | 11.0%
Cn1c(N)c(N=Cc2ccccc2)c(=O)n(C)c1=O
    ? | · | · | · | 8.1 | -1.0% | ·
CC(C)C(C(=O)Nc1ccncc1)c1ccc(Cl)cc1 (stereo not given)
    2.2% | · | -5.7 | -4.3% | -3.7 | 9.2% | 0.1%
CCn1nnc(NC(=O)C(C)Oc2ccc(Cl)cc2Cl)n1 (stereo not given)
    -48.0%[inhibitor] | 5.3 | -0.9 | -0.9% | -4.6 | -4.8% | 5.9%
CCN(CC)Cc1cc(C(C)=O)ccc1OCC(C)C
    ? | -1.7 | -10.5 | ? | 2.2 | 10.3% | -9.7%
COc1cc(/C=C2/C(=O)NN(c3cccc(C)c3)C2=O)cc([N+](=O)[O-])c1O
    -45.6%[inhibitor] | ? | 2.1 | -0.4% | · | -6.2% | 11.9%
CC(C)c1ccc(-c2noc(C3CCCN(S(C)(=O)=O)C3)n2)cc1 (stereo not given)
    -6.4% | 0.7 | -15.1 | 0.5% | 10.1 | -26.7% | -9.9%
Cc1c(NC(=O)c2ccc3c(c2)OCO3)c(=O)n(-c2ccccc2)n1C
    28.6% | 2.8 | -6.0 | 2.3% | -10.1 | 7.1% | -3.5%
COc1cc([N+](=O)[O-])cc2cc(C(=O)N3CCCC3)c(=O)oc12
    -2.7%[15.4 µM] | -0.3 | -9.4 | · | 4.0 | 3.3% | 17.4%
CC(OC(=O)CNC(=O)c1ccccc1F)C(=O)Nc1nc(-c2ccccc2)cs1 (stereo not given)
    -4.8% | -5.4 | -3.5 | 1.4% | -1.0 | -26.0% | 5.1%
CCOC(=O)[C@@H]1[C@H]2COc3ccccc3[C@H]2N2C(=O)N(c3cccc(Cl)c3)C(=O)[C@@]12C
    -1.9% | -4.4 | 14.0 | -6.5% | 0.0 | -9.9% | 14.4%
COc1ccc(/C=C(/NC(=O)c2ccccc2)C(=O)N/N=C/c2ccc3c(c2)OCO3)cc1OC
    ? | 8.5 | 18.4 | -0.4% | 41.4 | -3.8% | 13.7%
CCCn1nc(NC(=O)c2ccncc2)c2cc3ccccc3nc21
    -17.0% | 1.7 | -15.1 | -2.3% | 4.9 | -4.7% | 7.0%
Cc1cc(C)c(NC(=O)CCn2nnc3ccccc32)c(C)c1
    -24.6% | -5.3 | -3.6 | · | 3.7 | 8.3% | 2.4%
CCOc1ncccc1C(=O)OCC(=O)Nc1nnc(-c2ccccc2)o1
    -9.9%[15.4 µM] | · | 21.1 | · | ? | -10.3% | ·
O=C(O)/C(=C\c1ccc(Cl)c([N+](=O)[O-])c1)c1ccc(S(=O)(=O)N2CCCCC2)s1
    -9.5%[15.4 µM] | 4.9 | -4.6 | 28.2µM* | 2.4 | -19.9% | 44.7µM*
O=S(=O)(NCCSCc1ccc(Cl)c(Cl)c1)c1ccc2c(c1)OCCO2
    -1.1% | · | · | ? | -13.3 | -8.0% | ·
O=C(NCc1ccccn1)c1ccc(Cn2c(=S)[nH]c3ccccc3c2=O)cc1
    -134.9%[inhibitor] | -1.0 | 1.3 | 0.3% | · | -1.9% | -16.1%
CC1CC(=O)N(CC(=O)NCc2ccc(F)cc2)c2ccccc2S1(=O)=O (stereo not given)
    44.7% | 1.5 | -2.8 | -0.2% | 3.1 | 13.1% | 15.4%
CC1CCC(NC(=O)c2cnccn2)CC1 (stereo not given)
    3.1% | 0.1 | -6.4 | -11.5% | 3.5 | 5.1% | 14.0%
CCNC(=O)COC(=O)CCNC(=O)c1ccc(Cl)cc1
    ? | -0.2 | -6.0 | 0.9% | -0.1 | 9.5% | 9.0%
COc1ccccc1C(=O)N/C(=C\c1cn(S(=O)(=O)N(C)C)c2ccccc12)C(=O)N1CCN(C)CC1
    -29.2% | · | · | 2.6% | -5.1 | · | ·
O=C(Cn1cc(COc2ccccc2C(F)(F)F)nn1)c1ccc(O)cc1
    · | · | · | 1.9% | 2.5 | 0.0% | ·
CCOC(=O)C1CCCN(C2CC(=O)N(c3ccc(NC(C)=O)cc3)C2=O)C1 (stereo not given)
    -8.1%[15.4 µM] | -2.6 | -7.7 | · | -0.8 | 3.5% | 10.4%
Cc1cnc(NC(=O)CSc2ncc(-c3ccccc3)n2Cc2ccco2)s1
    28.3% | 2.8 | -5.6 | 0.6% | -23.5 | 2.0% | 4.6%
CC(=O)NS(=O)(=O)c1ccc(NC(=S)Nc2ccccc2)cc1
    -8.2% | 0.4 | 5.4 | 0.8% | · | 7.4% | 11.6%
CCOC(=O)C1CN(c2cc3c(cc2F)c(=O)c(C(=O)O)cn3CC)OC1C(=O)OCC (stereo not given)
    0.0% | -5.3 | -0.2 | -1.7% | 2.8 | 2.4% | 7.6%
COc1ccc(NS(=O)(=O)c2ccc(NC(=S)NC(=O)c3ccc(Br)cc3)cc2)nn1
    0.7% | 0.7 | 10.9 | 26.1% | -4.0 | -28.3% | -27.4%
CCC(CC)C(=O)Oc1c(Sc2ccccc2[N+](=O)[O-])c(C)nn1C(C)(C)C
    -3.2% | -0.3 | -18.3 | 0.7% | -16.8 | 15.8% | -16.3%
O=C(O)c1ccc(NS(=O)(=O)c2cccc3cccnc23)cc1
    7.0% | -0.6 | 4.1 | -2.0% | -8.8 | -4.1% | -4.1%
COc1ccccc1N1CCN(C(=O)CN2C(=O)c3cccc4cccc(c34)C2=O)CC1
    -25.0% | -3.3 | 20.9 | · | 2.6 | -25.5% | 4.7%
COc1ccccc1NS(=O)(=O)c1ccc2nc(CCl)[nH]c2c1
    5.3%[15.4 µM] | 8.0 | 7.5 | · | -6.4 | -2.3% | -19.9%
Cc1ccc2[nH]cc(CCNC(=O)c3cccs3)c2c1
    -14.7%[15.4 µM] | -5.8 | -12.5 | -0.9% | -21.9 | -2.4% | 0.7%
Cc1sc2ncnc(NCC3COc4ccccc4O3)c2c1C (stereo not given)
    11.5% | -0.2 | -16.1 | -0.8% | -3.0 | -15.1% | -14.8%
O=C(Nc1ccccc1Cl)c1csc(-c2cccnc2)n1
    -4.7% | 0.0 | -2.3 | 0.1% | · | ? | 7.2%
Cc1c(S(=O)(=O)N2CCN(C(=O)c3ccco3)CC2)c(=O)n(C)c(=O)n1C
    -14.5% | 2.5 | 3.1 | 0.8% | -9.6 | 9.1% | 15.7%
CCOC(=O)c1ccc(NC(=O)c2c(N)n(Cc3ccccc3)c(=O)[nH]c2=O)cc1
    21.5% | · | · | -6.2% | -15.1 | 3.1% | ·
Cc1ccc(S(=O)(=O)/N=c2\ccc(Cl)cn2C(F)F)cc1
    -26.4% | 5.4 | -2.2 | -6.6% | -9.1 | 4.4% | -8.0%
CC1CCCN(C(=O)C2CCN(S(=O)(=O)c3cccc4nsnc34)CC2)C1 (stereo not given)
    26.8% | 2.1 | -1.2 | -0.7% | · | 2.6% | 14.6%
Cc1ccccc1NC(=O)N1CCNC(=O)C1CC(=O)Nc1cc(Cl)ccc1Cl (stereo not given)
    -6.7%[15.4 µM] | · | 4.7 | -1.3% | -2.9 | 2.7% | 12.7%
COc1ccc(NS(=O)(=O)c2cccc3ccccc23)cc1
    2.7%[15.4 µM] | · | · | 0.4% | 8.6 | -12.8% | ·
O=C(c1ccc(OCc2cn3ccccc3n2)cc1)N1CCN(S(=O)(=O)c2ccccc2F)CC1
    -1.3% | · | 10.7 | ? | -1.1 | -3.2% | ·
CC1(C(=O)Nc2ccc3c(c2)OCCO3)CC1(Cl)Cl (stereo not given)
    -20.8% | · | -7.7 | 0.0% | 9.7 | 1.2% | 7.2%
Brc1ccc(-c2ncc(-c3ccccc3)cn2)cc1
    ? | 0.3 | 3.9 | 0.6% | 12.3 | 7.6% | -1.2%
Cc1ccc(NNc2c(C)nc3ccccc3nc2=O)cc1
    -31.4%[15.4 µM] | 3.4 | 4.3 | · | · | -23.4% | -15.1%
Cc1ccc(/C=N/NC(=O)C2(C)CC2(Br)Br)cc1 (stereo not given)
    -7.9%[15.4 µM] | -1.6 | -12.2 | · | 0.6 | 0.5% | 9.4%
CC(C)CCn1cnc2c(c1=O)c1nc3ccccc3nc1n2Cc1ccc2c(c1)OCO2
    -10.7% | -0.2 | 0.8 | -0.4% | 0.0 | 9.5% | 7.6%
COc1cc(OC)c(NS(=O)(=O)c2cc(C(=O)OCC(=O)NCC3CCCO3)ccc2OC)cc1Cl (stereo not given)
    27.9%[15.4 µM] | -1.2 | 0.9 | · | 17.8 | · | 6.7%
CCOCCn1c(SCc2ccccc2)nc2c1c(=O)[nH]c(=O)n2C
    -29.9% | -0.2 | -4.6 | -3.1% | -9.0 | 2.2% | -6.8%
O=c1c2ccccc2nc(N2CCN(c3ccccc3)CC2)n1Cc1ccccc1
    -3.3% | 1.4 | ? | ? | -7.7 | 0.3% | -2.1%
CCOc1ccc(/C=C/C(=O)CCC(=O)O)cc1
    -22.5%[15.4 µM] | -0.2 | 8.1 | · | 8.4 | -3.2% | -0.4%
O=C(N/N=C/C=C/c1ccccc1)c1cccs1
    5.2% | -0.1 | -7.1 | 1.3% | -3.1 | -3.6% | -5.7%
CCCn1nc(Oc2nc(SC)nc(N(C)C)n2)ccc1=O
    -49.5%[inhibitor] | 0.4 | -3.4 | 25.1µM* | 1.2 | -5.3% | 10.8%
COc1ccc(CCNC(=O)C2CCN(S(=O)(=O)N3CCCCC3)CC2)cc1OC
    -27.1% | 3.9 | 2.3 | -3.2% | 2.4 | 4.2% | 5.5%
CCC(C(=O)OCC(=O)N1CCN(S(=O)(=O)c2ccc(C)cc2C)CC1)c1ccccc1 (stereo not given)
    15.6% | · | -12.3 | 0.7% | -1.5 | -15.1% | ·
COc1ccc(-c2ccc(CN3C(C(C)C)C(=O)N(Cc4cn(CCC5OCCCO5)nn4)CCS3(=O)=O)cc2)cn1 (stereo not given)
    -28.3% | · | · | -1.5% | 0.5 | · | ·
